From PubChem BioAssay
D2 agonist: activates the human D2 dopamine receptor; P14416; DiscoveRx PathHunter D2 beta-arrestin, luminescence, 90 min; 100% = 57 uM dopamine signal; activation, % (concentration not given with the values); 0.084% of 360,000 active; AID 624465; in the data active = activation above about 40%; inconclusive = about 15% to 40%; inactive = below about 15%; note: compound concentration not given in the record; the text of the record calls up to 30% inactive
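DiscoveRx PathHunter D2 beta-arrestin cells (2,100/well) attached overnight, then compound-stimulated 90 min at 37 C in HBSS/10 mM HEPES/0.1% Tween-20 buffer; beta-galactosidase complementation read by luminescence after 1 h at ambient temperature. Dopamine 57 uM final (EC100) as control.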
D2 potentiator: potentiates the human D2 dopamine receptor allosterically; P14416; DiscoveRx D2 beta-arrestin cells, luminescence, 90 min; 100% = 57 uM dopamine signal; potentiation, % (concentration not given with the values); 0.23% of 360,000 active; active = potentiation of 50% or more; inconclusive = 30% to 50%; inactive = 30% or less;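 note: compound concentration not given in the record; tested on top of an EC20 dose of dopamine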
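D2 cells co-treated with compound plus 50 nM dopamine (EC20) for 90 min at 37 deg C to detect potentiation. Beta-arrestin recruitment was read as enzyme-fragment luminescence after 1 h at ambient temperature. Full response was set by 57 uM dopamine.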
Six1-Eya2 inh: inhibitors of human Six1/Eya2 interaction | 0.56% of 360,000 active | AlphaScreen GST-Six1/His-Eya2 binding, biochemical; hits give low values; control for the full effect not named in the record | activity change, % (no concentration beside the values) | AID 651725; in the data active = activity change below about -65%; inconclusive = about -30% to -65%; inactive = above about -30%; note: % is set by controls: 0 for no effect and ±100 for the full control effect; compound concentration not given in the record
Target sequence (O00167 whole entry, looked up): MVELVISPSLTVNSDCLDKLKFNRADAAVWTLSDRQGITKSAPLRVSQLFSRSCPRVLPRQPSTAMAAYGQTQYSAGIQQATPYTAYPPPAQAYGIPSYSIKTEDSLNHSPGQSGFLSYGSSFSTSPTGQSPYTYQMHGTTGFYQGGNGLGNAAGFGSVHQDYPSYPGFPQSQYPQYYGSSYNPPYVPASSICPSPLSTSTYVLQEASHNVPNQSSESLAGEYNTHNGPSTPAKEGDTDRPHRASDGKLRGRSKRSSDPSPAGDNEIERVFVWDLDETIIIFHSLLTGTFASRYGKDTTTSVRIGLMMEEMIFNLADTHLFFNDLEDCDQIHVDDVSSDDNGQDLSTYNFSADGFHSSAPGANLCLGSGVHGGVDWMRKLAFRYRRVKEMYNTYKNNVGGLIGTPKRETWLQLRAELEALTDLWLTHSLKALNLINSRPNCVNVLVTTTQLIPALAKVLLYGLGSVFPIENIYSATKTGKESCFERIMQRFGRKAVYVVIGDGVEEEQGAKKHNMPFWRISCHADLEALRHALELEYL
Target sequence (Q15475 whole entry, looked up): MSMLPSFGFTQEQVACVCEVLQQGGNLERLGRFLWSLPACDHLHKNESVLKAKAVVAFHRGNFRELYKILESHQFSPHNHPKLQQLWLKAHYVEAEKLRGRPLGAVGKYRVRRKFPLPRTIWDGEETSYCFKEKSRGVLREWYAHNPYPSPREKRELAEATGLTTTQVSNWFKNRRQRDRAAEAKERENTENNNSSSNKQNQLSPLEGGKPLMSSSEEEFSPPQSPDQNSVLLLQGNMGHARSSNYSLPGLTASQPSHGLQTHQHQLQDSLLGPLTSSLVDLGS
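Compounds are tested against tagged Six1 and Eya2 proteins bridged by glutathione donor and nickel acceptor beads; after a one-hour incubation at 37 °C without light, AlphaScreen emission is recorded.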
gsp agonist: activates gsp, the McCune-Albright syndrome mutation; gsp mutant cells, cAMP HTRF, 30 min; control for the full effect not named in the record; Potency, µM (top dose mostly 76.9 µM), without a hit: at the top dose activation (cAMP increase), most hits filed as activators; 0.13% of 340,000 active; AID 624287; active = well fitted activation curve with a large enough effect; inconclusive = small, poorly fitted or top-dose-only effect, or another doubt; inactive = no such curve, though single readings can be large or run the other way; cell line not stated here;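 note: phosphodiesterase inhibitor Ro 20-1724 added with compounds to block cAMP breakdown; potency is the fitted concentration of half-maximal effect; nearly all actives have a fitted effect of over 60% in size; about a fifth of the inactives were tested at one dose only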
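Cells stably selected in G418 were plated at 2000/well, grown 16-24 hr, then given compounds in DMSO with the PDE inhibitor […] (300 uM solution added) for 30 min at 37C; cAMP was read by HTRF.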
gsp antag: gsp mutant antagonism; 0.4% of 340,000 active; gsp-mutant cells, cAMP HTRF, 30 min; control for the full effect not named in the record; Potency, µM (highest dose often 76.9 µM), for inactives: top-dose activity change, negative = inhibition, most hits filed as inhibitors; active = falling curve of any shape with a large fitted effect; inconclusive = falling curve, mostly with a smaller effect; inactive = flat or rising curve; cell line not stated here;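 note: intracellular cAMP measured with PDE inhibitor Ro 20-1724 present during compound exposure; potency is the fitted concentration of half-maximal effect; % is set by controls: 0 for no effect and ±100 for the full control effect; nearly all actives have a fitted effect of over 65% in size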
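Cells, 2000/well, grown 16–24 h in DMEM 10% FBS with 0.5 mg/ml G418, then compounds plus […] (300 uM addition stock), 30 min at 37C. cAMP read by HTRF (cAMP-d2 and anti-cAMP antibody-K in lysis buffer) after 30 min RT.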
CtBP-E1A blk: inhibitors of CtBP/E1A interaction; AlphaScreen GST-E1A/His-CtBP binding, 1536-well; hits give low values; control for the full effect not named in the record; activity change, % (test concentration not listed); 0.49% of 340,000 active; AID 651724; in the data active means activity change below about -65%; inconclusive means about -30% to -65%; inactive means above about -30%; note: % is set by controls: 0 for no effect and ±100 for the full control effect; compound concentration not given in the record
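Protein mix (5X: 125 nM each GST-E1A, His-CtBP) was incubated with pinned compound 2 h at 37 deg C in dark, in 50 mM Tris pH 8.0 buffer with 300 mM NaCl. Glutathione donor and nickel acceptor beads followed; AlphaScreen signal read after 1 h.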
* marks the source's active call; other numbers are inactive results; ? = inconclusive; nt = no result given; [ ] = dose if it differs, or a comment.

SMILES	D2 agonist	D2 potentiator	Six1-Eya2 inh	gsp agonist	gsp antag	CtBP-E1A blk
Cc1ccc(S(=O)(=O)NCC(=O)N2CCOCC2)cc1	-0.1	-1	-7	-16%	9%	5
COc1ccc(NS(=O)(=O)c2cccc(C(=O)NCC3(N(C)C)CCCCC3)c2)cc1	-3.0	-6	5	-10%[15.4 µM]	7%	-4
CCCCCCCCn1cc(C(C)=O)c(=O)[nH]c1=O	-0.7	1	7	-6%	1%	-4
Fc1cccc(NC(=S)Nc2cccnc2)c1	-2.0	-7	14	10%[15.4 µM]	nt	-24
CC(C)OCCCNC(=O)CNC(=O)c1ccc(Cl)c(Cl)c1	-3.2	-6	6	1%[15.4 µM]	-20%	14
O=C(c1cccc(S(=O)(=O)N2CCCCCC2)c1)N1CCN(Cc2ccccc2)CC1	0.1	0	1	12%	0%	1
COc1ccc(NC(=O)COC(=O)Cc2cccs2)cc1OC	0.0	7	-1	-4%[15.4 µM]	-1%	-1
CC1=CC(C)(C)N(C(=O)Nc2ccccc2)c2ccccc21	-3.3	0	19	-4%[15.4 µM]	11%	0
Oc1ccc2ccccc2c1CNc1cnc2ccccc2c1	6.5	29	4	-42%[inhibitor]	4%	16
Cc1ccc(NC(=O)C(C)c2ccc([N+](=O)[O-])cc2)cc1Cl (stereo not given)	5.7	-13	-7	-3%[15.4 µM]	-23%	-11
N/C(=N\OC(=O)c1ccco1)c1ccc(Cl)cc1	12	16	0	-1%	-4%	11
Cc1cc(NC(=O)CS(=O)(=O)c2cn(Cc3ccc(F)cc3)c3ccccc23)no1	-2.8	-5	2	18%	-23%	0
COCCCNC(=O)c1c[nH]c2ccc(S(=O)(=O)N(C)c3ccccc3C)cc2c1=O	13	6	-6	-43%	?	-3
O=C1/C(=C\c2ccco2)NC(=S)N1c1ccccc1	-2.5	-6	?	2%	-5%	-19
O=C1CC(c2ccc(S(=O)(=O)NCc3ccncc3)cc2)CN1 (stereo not given)	2.9	0	0	4%	7%	6
Cn1c(N)c(C(=O)COC(=O)COc2ccc(Cl)cc2)c(=O)n(C)c1=O	-2.2	1	-11	?	5%	nt
COc1ccc(CN2CCCC(CO)(Cc3cccc(Cl)c3)C2)cc1OC (stereo not given)	-1.3	-12	-6	-13%	8%	-4
CC1CN(C(=O)c2cccc(S(=O)(=O)N3CCOCC3)c2)CC(C)O1 (stereo not given)	-2.1	23	-8	20%	6%	-5
Cc1nc2c(c(C)c1C#N)C(=O)c1ccccc1-2	0.5	-4	-8	-1%[15.4 µM]	24%	-7
O=C(CCN1CCCO1)N1CCCC(N2CCN(c3ccccc3F)CC2)C1 (stereo not given)	-0.7	-10	2	?	-5%	-14
Cc1ccc(C)c(CN2CCCNC2=O)c1	-2.8	-8	-2	4%	0%	3
O=C(CN1C(=O)NC2(CCCCCC2)C1=O)c1ccc(Cl)cc1	8.2	1	20	25%	-25%	0
Cn1nccc1NC(=O)Nc1cccc(Cl)c1Cl	-4.8	-12	-13	-18%[15.4 µM]	3%	-5
CN(CCOc1ccc(Cl)cc1)C(=O)c1cc([N+](=O)[O-])ccc1N1CCOCC1	-3.9	-23	-14	13%[15.4 µM]	5%	4
NC(CC(=O)O)c1ccc(F)cc1 (stereo not given)	-2.1	-10	14	14%	8%	9
Next records.
SMILES	D2 agonist	D2 potentiator	Six1-Eya2 inh	gsp agonist	gsp antag	CtBP-E1A blk
C/C=C/C=C\C(=O)Nc1cccc(C2=NOC3(C2)C[C@@H](C(N)=O)N(C(=O)c2cc([N+](=O)[O-])cc([N+](=O)[O-])c2)C3)c1 (stereo not given in full)	7.3	18	-13	-8%	?	-8
O=C1C=C(c2ccnc3cc(Cl)ccc23)C[C@@H](c2ccc3c(c2)OCO3)C1	5.0	-4	-16	?	-12%	-14
COc1ccc2nc(Nc3ccc4c(c3)OCO4)sc2c1	-1.5	8	-1	-44%[inhibitor]	-6%	-2
CC(=NCCN1CCOCC1)C1=C(O)c2ccccc2C1=O	-3.8	-25	1	25%	1%	2
N#Cc1nc(-c2cccc3ccccc23)oc1N1CCCCC1	-3.6	6	7	-13%	9%	-21
CCOC(=O)c1c(NC(=O)CSc2nc3ccc(OC)cc3[nH]2)sc2c1CC(C)(C)NC2(C)C	-6.6	-36	-10	3%[15.4 µM]	-6%	-13
c1ccc(CNc2cccnc2)cc1	-10	-15	0	?	nt	2
O=C(Cc1ccc(Br)cc1)OCC(=O)c1ccc2c(c1)OCCO2	-2.5	-4	8	-21%	3%	9
O=C(C1=C(O)C(=O)N(CCOCCO)C1c1cccc([N+](=O)[O-])c1)c1cccs1 (stereo not given)	-2.6	-12	-23	-3%[15.4 µM]	8%	2
CNC(=O)Nc1ccccc1C(=O)Nc1ccccc1	-1.3	-4	8	-7%	0%	-11
CC(=O)NC/C(C)=N\Nc1ccc([N+](=O)[O-])cc1	-0.7	-1	0	-31%[inhibitor]	-10%	-4
CCCNC(=O)C1(C)CCCN(Cc2ccc(-n3ccnc3)cc2)C1 (stereo not given)	-5.2	-12	3	nt	nt	7
CCOc1ccc(S(=O)(=O)/N=C(/Nc2ccc(C)c(S(=O)(=O)N3CCOCC3)c2)c2ccccc2)cc1	-4.1	-10	-9	-22%	-13%	8
O=C(c1ccccn1)N(Cc1cc2ccccc2[nH]c1=O)C1CCCCC1	-2.8	-28	-6	16%	-6%	2
COc1cccc(/C=C(/C(=O)OCC(=O)NC2CCCC(C)C2C)c2ccccc2)c1 (stereo not given)	2.0	1	4	-9%	-24%	1
NNC(=O)c1cnn(Cc2ccccc2)c1N	-4.9	3	2	-2%	2%	13
COC(=O)c1c(NC(C)=O)sc(Cc2ccccc2)c1C	-0.9	4	-2	-37%	-11%	-4
Cc1cccc(OCC(=O)Nc2cccc(-c3nnc(-c4ccccc4)o3)c2)c1C	0.0	-5	3	-39%[inhibitor]	-6%	20
COc1ccc(-c2nnn(CC(=O)N(Cc3cccs3)C(C)C(=O)NCCC(C)C)n2)cc1OC (stereo not given)	-0.9	2	1	-24%	-18%	1
Cc1ccc(SCCC(=O)OCC(=O)NCC2CCCCC2)cc1	6.0	-6	0	-2%[15.4 µM]	9%	5
CC(=O)Oc1ccc(Cl)cc1/C=C/c1ccc2ccccc2n1	3.4	3	24	12%[15.4 µM]	-8%	0
O=C(COC(=O)c1ccc([N+](=O)[O-])o1)NC12CC3CC(CC(C3)C1)C2	0.9	4	-7	-15%	-30%	0
COc1ccc(CCNC(=O)c2ccc3c(=O)n4c(nc3c2)CCC4)cc1OC	-5.1	1	-5	17%[15.4 µM]	1%	-7
Cc1cc(C)nc(Sc2nc(Nc3ccccc3)nc(Sc3nc(C)cc(C)n3)n2)n1	-1.5	-20	-13	-2%	-4%	0
CCOc1ccc(OCC)c(NC(=O)C2CCCN(S(=O)(=O)c3cnc[nH]3)C2)c1 (stereo not given)	-4.9	-6	-7	-38%[inhibitor]	-7%	1

7 entries from above, ordered by SMILES length, ascending:
SMILES	D2 agonist	D2 potentiator	Six1-Eya2 inh	gsp agonist	gsp antag	CtBP-E1A blk
N#Cc1nc(-c2cccc3ccccc23)oc1N1CCCCC1	-3.6	6	7	-13%	9%	-21
CC(=O)NC/C(C)=N\Nc1ccc([N+](=O)[O-])cc1	-0.7	-1	0	-31%[inhibitor]	-10%	-4
CCCNC(=O)C1(C)CCCN(Cc2ccc(-n3ccnc3)cc2)C1 (stereo not given)	-5.2	-12	3	nt	nt	7
O=C(c1ccccn1)N(Cc1cc2ccccc2[nH]c1=O)C1CCCCC1	-2.8	-28	-6	16%	-6%	2
O=C(C1=C(O)C(=O)N(CCOCCO)C1c1cccc([N+](=O)[O-])c1)c1cccs1 (stereo not given)	-2.6	-12	-23	-3%[15.4 µM]	8%	2
COc1ccc(-c2nnn(CC(=O)N(Cc3cccs3)C(C)C(=O)NCCC(C)C)n2)cc1OC (stereo not given)	-0.9	2	1	-24%	-18%	1
C/C=C/C=C\C(=O)Nc1cccc(C2=NOC3(C2)C[C@@H](C(N)=O)N(C(=O)c2cc([N+](=O)[O-])cc([N+](=O)[O-])c2)C3)c1 (stereo not given in full)	7.3	18	-13	-8%	?	-8

(cont.)
SMILES	D2 agonist	D2 potentiator	Six1-Eya2 inh	gsp agonist	gsp antag	CtBP-E1A blk
CCOC(=O)c1ccc(NS(C)(=O)=O)cc1	1.6	-19	-1	-10%	8%	-2
CCC(C)NC(=O)c1ccccc1NS(=O)(=O)c1ccc(OC)c(OC)c1 (stereo not given)	-2.3	-21	-10	-3%	-4%	-1
O=C(NCCc1ccccc1)C1CCCN(S(=O)(=O)c2cccs2)C1 (stereo not given)	-3.9	3	-7	?	3%	1
Cc1cc(N/N=C/c2ccccc2Br)nc2ccccc12	-4.8	-20	18	-22%	-10%	6
COc1cccc(N(CC(=O)N/N=C(\C)c2cccs2)S(C)(=O)=O)c1	-1.9	-13	-1	5%	19%	8
CCCCCC1C(C(=O)OCC)C(=O)NC1(C(=O)OCC)C(=O)OCC (stereo not given)	-2.7	-26	26	-18%[15.4 µM]	-2%	10
COc1cc(Cl)c(C)cc1NC(=O)COc1ccccc1[N+](=O)[O-]	-2.4	-1	0	-7%	-11%	2
Cc1ncc([N+](=O)[O-])n1Cc1ccccc1	-4.5	-13	16	-5%	0%	0
OC(Cc1ccncc1)(c1ccccc1)c1ccccc1	-3.0	-15	3	-28%	2%	16
O=C(COC(=O)c1cc(F)cc(F)c1)Nc1cccnc1Cl	-4.3	-17	12	6%[15.4 µM]	8%	2
CC(CC(=O)Nc1ccc(S(=O)(=O)N2CCOCC2)cc1)c1ccccc1 (stereo not given)	-1.6	-5	4	22%[15.4 µM]	4%	13
Cc1ccc(NC(=O)CC2S/C(=N/N=C/c3ccco3)NC2=O)cc1Cl (stereo not given)	0.4	-9	-2	0%[15.4 µM]	2%	10
CC(C)(C)n1nc2c(c1NC(=O)c1cccs1)CS(=O)C2 (stereo not given)	-1.1	-11	-4	13%[15.4 µM]	3%	0
CCCNC(=S)NCc1ccc(Cl)cc1	-1.6	-4	1	-21%	9%	15
CN1C(=O)C(O)(CC(=O)c2cccs2)c2ccccc21 (stereo not given)	-3.0	-1	13	-81%[inhibitor]	2%	10
CCCCCC(=O)Nc1cccc(C2=NOC3(C2)C[C@H](C(N)=O)N(C(=O)[C@H]2CCC(=O)N2)C3)c1 (stereo not given in full)	-2.0	-4	4	nt	-1%	0
COc1ccc(NC(=O)N(C)C[C@H]2OCCCC[C@H](C)Oc3ccc(NS(=O)(=O)c4cn(C)cn4)cc3C(=O)N([C@H](C)CO)C[C@@H]2C)cc1	-0.8	6	5	-22%	nt	6
CC(C)(C)c1ccc(/C=N/OCC(=O)NCc2ccccc2)cc1	-12	-2	1	12%[15.4 µM]	-5%	10
Nc1n[nH]c2cccc(Cl)c12	-2.6	-10	0	1%	4%	-2
Oc1oc(C=Nc2ccc(F)cc2F)c2ccccc12	-7.3	-6	-5	1%	5%	nt
O=C(O)CCC(=O)NCc1cn(-c2ccccc2)nc1-c1cccc(Br)c1	-2.4	-3	3	21%	-12%	-8
Cc1ccc(S(=O)(=O)NNC(=O)c2ccoc2C)cc1	-1.9	-8	4	12%	10%	0
